# NPYLR7 agonist = agonists of mosquito NPYLR7 receptor, primary screen, cell-based, Aedes aegypti, calcium fluorescence, mosquito biting behavior; Aedes aegypti neuropeptide Y-like receptor 7 (NPYLR7); HEK293T NPYLR7/Galpha15, GCaMP6s calcium fluorescence; activation, % at 10 µM; actives 0.15% (n = 270,000); AID 1259423, 2018; in the data active = activation above about 40%;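 note: 0% = vehicle and 100% = reference agonist at the receptor; some compounds past the cut are filed as inactive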
# NPYLR7 agonist max-min = further read-out of NPYLR7 agonist, marked with its call; activation, %; measured here: Max-Min RFU normalised activation; some inactives read as strong as hits;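 span of the calcium signal over five minutes; 0% = vehicle and 100% = native peptide agonist; compound fluorescence can raise it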
# Starred values were filed as active, the others as inactive; & = joins results of further samples.
SMILES,NPYLR7 agonist,NPYLR7 agonist max-min
COc1ccc2c(c1)-c1sc(C(=O)N3CCc4ccccc4C3c3ccccc3Cl)cc1CC2 (stereo not drawn),6,1
CCc1ccc(C(=O)N(Cc2ccc(C)cc2)Cc2nc3cc(C)ccc3o2)cc1,3,0
Cc1oc(-c2cccc(F)c2F)nc1CN1CCCCC1CO (stereo not drawn),-1,-3
CC(C)C(=O)Nc1cccnc1-c1cc(Cl)c2c(c1)CC(CN)O2 (stereo not drawn),4,-1
Cc1nc2c(c(Sc3nccn3C)n1)CCCC2,9,6
C=c1oc(C)cc1=C1NN=C(CCC(=O)NCc2csc(C)n2)O1,4,4
O=C(NCc1cccc(-c2ncc(-c3ccc(F)cc3)[nH]2)c1)c1cc(Cl)cc(Cl)c1,1,-2
Cc1ccc(C)c(C(=O)NCC(c2cccn2C)N2CCCCCC2)c1 (stereo not drawn),-9,-12
O=C(COc1ccc(Br)cc1F)NCc1ccncc1,7,4
CCCC(=O)C1=C(c2ccc(C(C)C)cc2)N(C(=O)CCC)n2c(C)nnc2S1,3,-2
CC(C)c1ccc(CCNC(=O)CN2CCCN(C)CC2)cc1,1,0
Cc1nc(N)sc1C,1,7
CCc1sc(-c2nnc(CSc3nnc(C4CC4)n3C)o2)cc1C,-1,7
Cc1cc(C)n(CC(C)C(=O)Nc2ccccc2Br)n1 (stereo not drawn),15,8
COc1ccccc1NC(=O)Cn1cc(-c2nnc(-c3ccco3)o2)c2ccccc21,4,6
CCn1cnnc1SCC(=O)Nc1ccc(F)cc1Cl,4,2
O=C(Nc1cccc(F)c1)C(C1CCCC1)N1CCN(C(=O)c2ccco2)CC1 (stereo not drawn),-7,21
O=C(C1CCC1)N1CCC2(CC1)OCC(C(=O)N1CCCC1)N2C(=O)c1ccc(F)cc1 (stereo not drawn),-2,7
COCc1cc(=O)n(Cc2ccccc2OCC(F)(F)F)cn1,0,-1
CC(C)N1C(=O)[C@@H]2CN(S(=O)(=O)c3ccccc3)CCN2C1=O,-10,-16
O=C(Cc1n[nH]c(=O)c2ccccc12)OCc1cc(=O)n2cc(Br)ccc2n1,-2,-3
CCC(Oc1ccc([N+](=O)[O-])c(C)c1)C(=O)Nc1cc(C)on1 (stereo not drawn),3,-1
CC(=O)c1cc(C(=O)N2CCc3c([nH]c4ccccc34)C2c2ccccc2F)cs1 (stereo not drawn),-6,-7
Cc1[nH]n(-c2nc(-c3ccccc3)cs2)c(=O)c1N=Nc1cccc(Br)c1,-7,-9
COc1cccc(OCc2ccccc2)c1C(=O)NCCOc1ccccc1,-10,-19
COC(=O)c1sccc1NS(=O)(=O)c1c(Cl)cccc1Cl,1,3
CCN(CC)C(=O)Cn1cnc2c(nnn2-c2cc(C)cc(C)c2)c1=O,-3,-6
CCOc1ccc(-c2ccc(=O)n(CCCC(=O)Nc3cc(C)ccc3OC)n2)cc1,-6,-10
N#CC1COCCN1C(=O)CCCc1nc(-c2cccs2)no1 (stereo not drawn),4,-3
Cc1cc(S(=O)(=O)N(C)C)cc(NC(=O)CCl)c1C,-1,-1

# Record cards (already shown):
# O=C(Cc1n[nH]c(=O)c2ccccc12)OCc1cc(=O)n2cc(Br)ccc2n1 in the list: NPYLR7 agonist = -2; NPYLR7 agonist max-min = -3
# CCC(Oc1ccc([N+](=O)[O-])c(C)c1)C(=O)Nc1cc(C)on1 (stereo not drawn) in the list: NPYLR7 agonist = 3; NPYLR7 agonist max-min = -1
# COC(=O)c1sccc1NS(=O)(=O)c1c(Cl)cccc1Cl in the list: NPYLR7 agonist = 1; NPYLR7 agonist max-min = 3

# Following part:
SMILES,NPYLR7 agonist,NPYLR7 agonist max-min
CCCCS(=O)(=O)NCc1nc(C(C)(C)C)cs1,4,-1
NC(=O)Cn1ccc(NCc2c(F)cccc2F)n1,0,-4
Cc1ccc(NC(=O)CC(=O)NCc2ccc(CN3CCCC3)cc2)cc1,-1,-7
COc1cc(C(=O)NCc2cccnc2N(C)C)ccc1C,3,1
O=C(NCCc1cn(Cc2ccc(Cl)cc2)c2ccccc12)c1ccccc1C(F)(F)F,-7,-11
CCOC(=O)C1CCCN(C(=O)c2cc(-c3ccc(F)cc3)nc3cc(-c4ccc(Cl)cc4)nn23)C1 (stereo not drawn),-20,-12
COCCn1cc(C(=O)N2CCOCC2)c2nn(-c3ccccc3)c(=O)c-2c1,16,9
CCCCN(C)C(=O)c1nc2ccccn2c1CN1CC(O)C1,-3,0
Cn1c(=O)[nH]c(=O)c2c1nc(CN1CCOCC1)n2Cc1c(Cl)cccc1Cl,-2,-5
CC(=O)N(Cc1nc2cc(C)ccc2o1)Cc1ccccc1Cl,2,-2
COc1cc2c(cc1NC(=O)CC(C)=NNC=O)oc1ccccc12,-8,-13
C=C(C)Cn1c(N2CCN(Cc3cccc(C)c3)CC2)nc2c1c(=O)[nH]c(=O)n2C,-3,-5
CCc1cn[nH]c1C1CCN(C(=O)c2cccc3c2NCCC3)CC1,5,2
Cn1ccnc1CNC(=O)CC(c1cccc(O)c1)c1ccccc1Cl (stereo not drawn),10,-6
CC1CCN(c2cc3c(cc2F)c(=O)c(S(=O)(=O)c2ccccc2)cn3C)CC1,-1,-1
O=C(O)C(=Cc1cccs1)c1cccs1,9,7
c1cc(-c2ccc(Cn3ccnc3)cn2)n2nccc2c1,4,3
COc1ccc(-c2nc(CN3CCSCC3)c(C)o2)c(OC)c1C,4&-1,2&1
COc1cccc(C(=O)NCC2Cc3cc(C)cc(-c4cc(C(C)=O)ccc4F)c3O2)c1OC (stereo not drawn),15,4
CO[C@H]1CN(C(=O)c2cccc(C(=O)O)c2)CC[C@H]1N,-8,-8
CCn1ncc(C2=NOC(C(=O)NCC(C)C)C2)c1C (stereo not drawn),10,10
COc1cccc(OCC(O)CNC(=O)C2CCN(c3nc(C)c4ccccc4n3)CC2)c1 (stereo not drawn),0,-5
CCc1nc2c(OCc3cc(Cl)cc(Cl)c3)cccn2c1N(C)C(=O)c1ccc2c(c1)OCO2,3,11
Nc1nc(Cl)cc(Oc2ccc(C3SCCS3)cc2)n1,9,4
Cc1ccn2c(=O)nc(SCc3ccccc3Cl)nc2c1,4,4
CC(C)CN1CCN(C(=O)NCc2ccc(Cl)cc2)C(C)C1=O (stereo not drawn),2,2
CCCC1=NN(C(C)=O)C(C(=O)NCCc2ccc(O)cc2)O1 (stereo not drawn),7,3
c1ccc(-c2nnc(SCc3nc4ccccc4o3)o2)cc1,1,3
CS(=O)(=O)c1ccc(NC(=O)CNc2ccccc2C(F)(F)F)cc1,7,4
O=C(NCCCn1nc(-c2ccc(Cl)cc2)ccc1=O)C1CC1,-2,-3
O=C(C=Cc1cccs1)N1CCN(Cc2ccc(Br)s2)CC1,0,10
Cc1c(C(=O)NC(C)C(C)(C)C)cc(Br)cc1S(N)(=O)=O (stereo not drawn),0,0
O=S(=O)(C1=Cc2ccccc2CC1)N1CCN(c2ccc(O)cc2)CC1,8,10
Cc1cccn2c(CC(=O)NC3CCC(n4cnnc4)CC3)cnc12 (stereo not drawn),6,1
COC(=O)Cn1cnc2ccsc2c1=O,-1,6
Cc1ccc(C2=Nn3cnnc3SC2)cc1,2,0
COc1cc(Cn2c(C)cc(O)cc2=O)cc(OC)c1OC,-3,2
CCOC(=O)C1(Cc2ccccc2Cl)CCN(C(=O)c2cccs2)CC1,15,3
Cc1cccc2c1N(C(=O)C1CC(=O)N(C3CCCC3)C1)CCC2 (stereo not drawn),1,-1
O=C(NCc1n[nH]c(=S)n1-c1ccc(Br)cc1)c1c(F)cccc1Cl,-2,-3
CCN1Cc2cc(OC)ccc2N(CC(O)COC(C)(C)C)CCC1=O (stereo not drawn),0,4
O=C(NCc1cccnc1-n1cnc2ccccc21)c1cccc2c1OCC2,3,1
O=c1c2c3c(sc2ncn1CCSc1cn[nH]n1)CNCC3,9,6
COc1ccc(C)cc1S(=O)(=O)N1CCC(CCC(=O)Nc2cccc(C)c2)CC1,6,3
CC(C)OC(=O)C1C(=O)CC(C)(O)C(C(=O)OC(C)C)C1c1ccc2c(c1)OCO2 (stereo not drawn),-8,-8
Cn1c(-c2cccnc2)cc2cnc(Nc3ccc4c(c3)OCO4)cc21,16,34
Clc1ccc(Oc2cc(N3CCCCCC3)ncn2)cc1,-6,5
CCOc1ccc(NC(=O)NCc2nnc(SCc3cccc(C)c3)n2-c2ccc(Cl)cc2Cl)cc1,-1,11
O=c1ccc(-c2cccs2)nn1CCNS(=O)(=O)c1ccc(F)c(C(F)(F)F)c1,1,-2
O=C(NCCNc1ccc(Nc2ccncc2)nn1)Nc1ccc(Cl)cc1,13,4

# (cont.)
SMILES,NPYLR7 agonist,NPYLR7 agonist max-min
CCn1c(SCC(=O)Nc2cc(C(F)(F)F)ccc2N2CCCCC2)nnc1-c1ccco1,8,12
Cc1oc(C(C)(C)C)cc1C(=O)NCCNc1c(Cl)cccc1[N+](=O)[O-],-15,-22
Cc1cccnc1NC(=O)C1CCCN(C(=O)c2n[nH]c3ccccc23)C1 (stereo not drawn),3,0
CC(=O)Nc1ccc(SCCCC(=O)N2CCc3ccccc32)nn1,-2,-3
Cc1nc(N=C(N)NC(=O)N2c3ccccc3Sc3ccccc32)nc2ccccc12,1,-1
CS(=O)(=O)N1CCC(N2CCCC2c2ccccn2)CC1 (stereo not drawn),3,1
COc1cc2ncc(C#N)c(N3CCC(C(=O)Nc4cccc(C#N)c4)CC3)c2cc1OC,17,7
CCOC(=O)N1CCN(C(c2ccccc2)C2Sc3nc(CC)nn3C2=O)CC1 (stereo not drawn),-3,-6
O=C1C(=O)N(CCCN2CCOCC2)C(c2ccncc2)C1=C(O)c1ccc(F)cc1 (stereo not drawn),6,29
CC1=NN(C(=O)c2cccs2)C(O)(c2ccccc2)C1 (stereo not drawn),16,7
CC(=O)N[C@@H](C)C(=O)Nc1cc(C)ccc1NC(=O)c1ccccc1,7,-4
Clc1ccc(-c2nnc(-c3cccnc3)o2)cc1,-2,-3
CC(C)N1CCCC(C)(C(=O)Nc2nc3ccccc3[nH]2)C1 (stereo not drawn),0,-3
Oc1cccc(-c2cc3c(cn2)ncn3-c2ccccc2)c1,-1,-8
Cc1cccc(NC(=O)CNC(=O)c2cnc3c(cnn3C(C)C)c2)c1C,13,8
COc1ccc(-c2nccn2CCc2ccc(S(N)(=O)=O)cc2)cc1,-2,-5
O=C(O)c1coc(CN(Cc2cccc(F)c2)Cc2ccco2)n1,14,26
Clc1nc(N2CCCCC2)nc(N2CCOCC2)n1,16,0
CCCCc1ccc(-c2ccc(-n3cncc3C(=O)NCc3cccs3)cc2)cc1,6,0
Cc1cc[n+](C2=C(c3c(C)[nH]n(-c4cccc(Cl)c4)c3=O)C(=O)N(C3CCCCC3)C2=O)cc1C,-3,4
Cn1c(=O)c2cn3c(c2n(C)c1=O)C(c1ccccc1)CC(c1ccccc1)=N3 (stereo not drawn),-15,-20
COCCC1CN(C(=O)c2cc(C)nc(C)n2)CCO1 (stereo not drawn),-2,15
O=C(CC1S/C(=N/N=C2CCCC2)NC1=O)Nc1ccccc1 (stereo not drawn),0,-2
CC(=O)N[C@H]1CCN(C(=O)c2cccc(-c3cccc(F)c3)c2)C1,-3,1
Cc1cc(NC(=O)c2cc3ccccc3o2)n(-c2nc3c(c(=O)[nH]2)CCC3)n1,7,3
Cn1c(=O)c2nc(NN=Cc3ccco3)cnc2n(C)c1=O,-1,47
COC(=O)C1CCCN1C(=O)c1cc(CC(C)C)no1 (stereo not drawn),10,3
O=C(c1ccc(N2CCCS2(=O)=O)cc1)N1CCN(S(=O)(=O)c2cccc(F)c2)CC1,7,3
CCc1ccc(S(=O)(=O)NCCOc2ccc(-c3ccccc3)nn2)s1,-5,-14
COc1ccccc1-n1c(CNC(=O)c2cccs2)nnc1SCC(=O)Nc1cc(C(F)(F)F)ccc1Cl,-7,-6

# Of the compounds above, these contain an aryl thioether with sulfur outside any ring:
SMILES,NPYLR7 agonist,NPYLR7 agonist max-min
Cc1nc2c(c(Sc3nccn3C)n1)CCCC2,9,6
CCc1sc(-c2nnc(CSc3nnc(C4CC4)n3C)o2)cc1C,-1,7
CCn1cnnc1SCC(=O)Nc1ccc(F)cc1Cl,4,2
Cc1ccn2c(=O)nc(SCc3ccccc3Cl)nc2c1,4,4
c1ccc(-c2nnc(SCc3nc4ccccc4o3)o2)cc1,1,3
O=c1c2c3c(sc2ncn1CCSc1cn[nH]n1)CNCC3,9,6
CCOc1ccc(NC(=O)NCc2nnc(SCc3cccc(C)c3)n2-c2ccc(Cl)cc2Cl)cc1,-1,11
CCn1c(SCC(=O)Nc2cc(C(F)(F)F)ccc2N2CCCCC2)nnc1-c1ccco1,8,12
CC(=O)Nc1ccc(SCCCC(=O)N2CCc3ccccc32)nn1,-2,-3
COc1ccccc1-n1c(CNC(=O)c2cccs2)nnc1SCC(=O)Nc1cc(C(F)(F)F)ccc1Cl,-7,-6

# The list continues:
SMILES,NPYLR7 agonist,NPYLR7 agonist max-min
FC(F)(F)c1ccccc1C=NNc1nc2ccccc2o1,0,-1
Cc1ccc(C(=O)N2CCN(Cc3ccc4c(c3)OCCO4)CC2)cc1F,-5,13
NC(=O)CSc1nc(=O)n(Cc2ccco2)c2c1CCC2,1,-2
CC1CN(CC(=O)NCc2ccccc2)c2ccccc2S1 (stereo not drawn),-5,-7
COc1ccccc1-n1c(CNC(=O)c2ccc(S(=O)(=O)N(C)C)cc2)nnc1SCC(=O)N1CCc2ccccc21,9,14
COC(=O)c1ccc(COc2ccc([N+](=O)[O-])cc2)cc1,12,15
CC1C(=O)N(c2ccc3c(c2)OCO3)CCN1C(=O)c1cccs1 (stereo not drawn),9,13
C[C@@H]1[C@@H](OC(=O)NCCc2ccccc2)C[C@H]2C[C@@H]1C2(C)C,4,6

# Screening data (PubChem BioAssay)

# Some of the compounds tested, so the mix of outcomes need not match the whole.
